# RanGTP-Imp inh: inhibitors of RanGTP-importin-beta interaction, primary screen, biochemical, FRET, CFP-Ran, YFP-importin-beta, homogeneous; Ran GTPase (GTP-bound) - importin-beta complex; cell-free CFP-Ran/YFP-importin-beta FRET ratio; inhibition, % (no concentration beside the values); 300,000 tested, 1.1% active;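 active means most replicates above 15%; inconclusive means exactly half above 15%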;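 further: 0% = DMSO wells and 100% = Ran loaded with GDP instead of GTP; wells of about 40 µL received 100 nL stock; the first replicate is given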
# Vif TR-FRET: inhibitors of Vif binding to APOBEC3G peptide, primary screen, biochemical, TR-FRET, GST-Vif 1-94, biotin-A3G peptide, dose response retest (AID 1117319) | TR-FRET GST-Vif / biotin-A3G peptide binding; higher % means a stronger effect; test concentration not given here; strong numbers were not always called active | Virion infectivity factor (Human immunodeficiency virus type 1 group M subtype B (isolate … | 260,000 tested, 0.57% active | one-dose inhibition, %; IC50 in µM for titrated hits;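 active means above the screen mean plus three standard deviations and confirmed in dose response; inconclusive means results disagree or hit not tested in dose response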;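 further: Vif residues 1-94 fused to GST binding biotinylated APOBEC3G peptide 110-148; 0% = full assay without inhibitor and 100% = GST in place of GST-Vif; retest series ran down from 100 µM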
# MLL AF4-AF9 inh: inhibitors of AF4 peptide binding to AF9, primary screen, biochemical, AlphaScreen, biotin-AF4 peptide, FLAG-AF9, single point; inhibition, % at 10 µM; 350,000 tested, 0.47% active; AID 651704, 2012;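 active means every replicate reaching a set inhibition limit, whatever the replicate mean, cut at about 25% in these data; inconclusive means mean inhibition reaches that limit but some replicates miss it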;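 further: 0% = plate neutral control median and 100% = total signal loss; the record names both 10 and 1 µM as test concentration; the first replicate is given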
# Target sequence (P42568 whole entry, looked up): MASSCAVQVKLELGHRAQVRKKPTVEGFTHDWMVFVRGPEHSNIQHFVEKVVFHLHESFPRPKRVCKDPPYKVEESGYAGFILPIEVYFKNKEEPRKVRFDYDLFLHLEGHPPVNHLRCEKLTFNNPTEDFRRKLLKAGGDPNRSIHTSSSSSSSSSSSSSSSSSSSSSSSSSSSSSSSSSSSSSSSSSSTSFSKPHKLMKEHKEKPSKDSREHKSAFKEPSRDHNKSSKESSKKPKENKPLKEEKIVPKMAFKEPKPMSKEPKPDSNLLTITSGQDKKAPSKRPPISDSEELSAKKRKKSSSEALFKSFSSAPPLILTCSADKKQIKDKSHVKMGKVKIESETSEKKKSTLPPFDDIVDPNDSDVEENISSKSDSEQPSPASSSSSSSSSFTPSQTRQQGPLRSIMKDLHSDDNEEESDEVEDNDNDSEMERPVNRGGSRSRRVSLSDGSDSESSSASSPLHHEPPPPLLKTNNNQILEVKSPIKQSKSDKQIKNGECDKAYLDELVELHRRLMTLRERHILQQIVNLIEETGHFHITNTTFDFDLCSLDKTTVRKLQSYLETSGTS
# E coli growth: E. coli growth inhibition, primary screen, OD600; Escherichia coli growth, 23 h; active compounds read low; OD600 absorbance (concentration not given with the values); 330,000 tested, 0.21% active; AID 1053175, 2014;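 active means OD600 absorbance below the run mean of sample wells minus 3.6 SD, in any replicate, cut at about 0.56 in these data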;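 further: stock transfer was 300 nL into about 60 µL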
# HNF4A DNA FP: change in binding of human HNF4A to DNA, primary screen, biochemical, fluorescence polarization, FITC-DNA. 1 h. Hepatocyte nuclear factor 4-alpha (Homo sapiens), P41235. 360,000 tested, 0.3% active. activity change, % at 10 µM; in the data active means activity change above about 30%, passing the limit was not always enough;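 further: controls were the assay level and a saturating level of protein; the project sought stronger binding though the title names inhibitors; some compounds called inactive have numbers as strong as hits; positive values seem to mean higher polarization but the record does not say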
# FGF22 binding: binders of human FGF22 protein, primary screen, FGF22 synaptogenesis inhibitor project, biophysical, thermal shift, single point; Fibroblast growth factor 22 (Homo sapiens), Q9HCT0; recombinant FGF22 thermal shift, SYPRO orange fluorescence; percent of sucrose octasulfate shift, DMSO zero; calls only at 9.99 µM; 340,000 tested, 1.5% active; AID 651658, 2012;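 active means melting point raised past a set limit in the mean and every replicate; inconclusive means no clear call; three in four hits are not shown here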
# Target sequence (Q9HCT0 whole entry, looked up): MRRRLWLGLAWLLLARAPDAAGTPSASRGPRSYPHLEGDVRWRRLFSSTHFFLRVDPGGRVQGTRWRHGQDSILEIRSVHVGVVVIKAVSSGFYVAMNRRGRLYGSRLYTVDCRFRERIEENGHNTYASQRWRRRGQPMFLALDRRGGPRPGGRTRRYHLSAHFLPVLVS
# UCH37 inh: inhibitors of human UCH37 deubiquitinase, primary screen, biochemical, Ub-AMC cleavage, fluorescence; Ubiquitin carboxyl-terminal hydrolase isozyme L5 (Homo sapiens), Q9Y5K5; purified proteasome/UCH37; inhibition, % (no concentration beside the values); 330,000 tested, 0.33% active;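 active means mean of two replicates above 20%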;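 further: 0% = compound-free wells with enzyme and 100% = wells lacking proteasome; stock transfer was 100 nL into about 20 µL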
# Target sequence (Q9Y5K5 whole entry, looked up): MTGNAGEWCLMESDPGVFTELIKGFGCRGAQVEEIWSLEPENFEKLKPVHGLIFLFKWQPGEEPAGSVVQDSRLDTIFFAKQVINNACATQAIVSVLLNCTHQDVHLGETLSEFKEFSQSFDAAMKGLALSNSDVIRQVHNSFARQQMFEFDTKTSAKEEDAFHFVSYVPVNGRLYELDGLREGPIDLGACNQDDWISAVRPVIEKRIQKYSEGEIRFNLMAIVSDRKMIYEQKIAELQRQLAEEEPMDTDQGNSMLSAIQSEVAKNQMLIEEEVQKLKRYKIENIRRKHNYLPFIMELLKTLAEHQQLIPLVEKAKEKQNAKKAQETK
#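 system = Proteasome-associated human UCH37 deubiquitinase | amount = 0.15 nM proteasome as dispensed | medium = pH 7.4 Tris-HCl (50 mM) with ovalbumin, ATP-MgCl2, DTT | incubation = 30 min preincubation with enzyme, 25 min cleavage at room temperature | detection = AMC fluorescence 355/460 nm | read-out basis = percent inhibition | controls = no-proteasome and no-compound wells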
# The depositor's hits bear a star; i = inactive; ? = inconclusive; / = no result given; & = joins results of further samples.
SMILES,RanGTP-Imp inh,Vif TR-FRET,MLL AF4-AF9 inh,E coli growth,HNF4A DNA FP,FGF22 binding,UCH37 inh
Cc1ccccc1C(=O)Nc1cccc(NC(=O)c2ccccc2[N+](=O)[O-])c1,-3.8,0%,2.1,0.7,-4.2,i,-0.3
O=C(OC(c1ccccc1)c1nccc2ccccc12)c1cccc([N+](=O)[O-])c1 (stereo not given),-0.6,20%,6.5,0.69,-3.3,i,1.8
COc1ccc(NC2CCN(C3CC(=O)N(c4ccc(F)c(Cl)c4)C3=O)CC2)cc1 (stereo not given),5.8,?,/,0.71,0.0,/,2.2
Cc1ccc(S(=O)(=O)N(C)C)cc1NC(=O)COC(=O)C1CCN(S(=O)(=O)c2cccs2)CC1,-1.4,-4%,-0.1,0.7,-1.1,i,3.8
COc1ccc2ccc(=O)oc2c1CC(O)C(C)(C)O (stereo not given),-3.4,/,-12,0.77,-2.4,i,-163
Cc1ccc([C@H]2C[C@H](n3cc(COC(=O)c4ccccc4)nn3)[C@@H](O)CN2Cc2cccs2)cc1,/,-7%,-3.9,/,-2.3,i,/
CC(C)[C@H](NC(=O)N1CC(=O)Nc2ccccc21)C(=O)N[C@@H](Cc1ccccc1)C(=O)O,3.7,/,-1.4,0.69,3.5,i,0.9
NC(=O)c1cc(C(=O)c2cccc(Cl)c2Cl)c[nH]1,-2.8,5%,2.3,0.62,5.2,i,7.0
Cc1cc(OCCCC(=O)Nc2cccc(-n3cnnn3)c2)ccc1Cl,-2.4,/,-2.7,0.71,1.3,i,2.2
O=C(O)c1ccc(OCc2ccc(C(=O)O)o2)cc1,-0.8,9%,-2.1,0.64,-1.6,i,0.9
COc1ccc(S(=O)(=O)N2CCC(c3nc4ccccc4[nH]3)CC2)cc1,4.7,/,-3.5,0.68,1.4,i,2.0
COc1cc2c(cc1NC(=O)c1ccc(C(C)(C)C)cc1)CCCC2,2.1,0%,/,0.76,-2.3,/,3.8

# Five compounds drawn at random from those above:
SMILES,RanGTP-Imp inh,Vif TR-FRET,MLL AF4-AF9 inh,E coli growth,HNF4A DNA FP,FGF22 binding,UCH37 inh
COc1ccc(S(=O)(=O)N2CCC(c3nc4ccccc4[nH]3)CC2)cc1,4.7,/,-3.5,0.68,1.4,i,2.0
Cc1cc(OCCCC(=O)Nc2cccc(-n3cnnn3)c2)ccc1Cl,-2.4,/,-2.7,0.71,1.3,i,2.2
COc1ccc2ccc(=O)oc2c1CC(O)C(C)(C)O (stereo not given),-3.4,/,-12,0.77,-2.4,i,-163
Cc1ccc([C@H]2C[C@H](n3cc(COC(=O)c4ccccc4)nn3)[C@@H](O)CN2Cc2cccs2)cc1,/,-7%,-3.9,/,-2.3,i,/
Cc1ccccc1C(=O)Nc1cccc(NC(=O)c2ccccc2[N+](=O)[O-])c1,-3.8,0%,2.1,0.7,-4.2,i,-0.3

# The list continues.
SMILES,RanGTP-Imp inh,Vif TR-FRET,MLL AF4-AF9 inh,E coli growth,HNF4A DNA FP,FGF22 binding,UCH37 inh
Cc1cccn2cc(-c3cccc(S(=O)(=O)N4CC(C)OC(C)C4)c3)nc12 (stereo not given),4.0,/,-2.2,0.69,-0.2,i,-2.8
COc1ccc2c(c1)OC[C@H]1[C@H]2N2C(=O)c3cc(OC)ccc3NC(=O)[C@@]2(C)[C@H]1c1ccccc1,/,/,/,/,1.7,i,-0.3
CCCCCn1c(SCC2CCCO2)nc2cc(C(=O)N3CCC(C(N)=O)CC3)ccc2c1=O (stereo not given),/,1%,/,0.73,-1.7,/,5.7
COc1ccc2[nH]c(=O)c(-c3nnn(-c4ccc(F)cc4)n3)cc2c1,-9.7,/,-3.2,0.69,1.0,i,-1.8
O=C(CC1CC2CCC1C2)N1CCN(S(=O)(=O)c2ccc(C(F)(F)F)cc2)CC1 (stereo not given),/,5%,-0.6,/,3.8,i,/
COc1cccc2cc(C(=O)N3CCc4ccccc43)c(=O)oc12,4.3,-7%,/,0.74,4.9,/,2.4
Cc1cc(C)c2[nH]c(=O)c(CN(Cc3ccccc3)C(=S)NCCCN(C)C)cc2c1,4.0,-10%,7.1,0.7,3.0,i,-8.2
CCCCn1c(N)c(N(CC(C)C)C(=O)c2ccc(COc3ccccc3)o2)c(=O)[nH]c1=O,1.9,/,1.2,0.71,1.6,i,-0.9
N#Cc1ccc(-c2ccc(OCC(O)Cn3nnc4ccccc43)cc2)cc1 (stereo not given),/,3%,/,0.71,-1.5,/,3.6
Cc1cccc(-n2ncc3c(N(C)Cc4ccccc4)ncnc32)c1,?,/,-2.4,0.72,-0.6,i,1.2
O=S1(=O)NC(CC2=CCCCC2)C2CCCCC2O1 (stereo not given),2.0,/,-4.0,0.71,0.6,i,5.5
CC1C=CCC2C(=O)N(c3ccc(OC(=O)c4cccs4)cc3)C(=O)C12 (stereo not given),5.9,-12%,-2.5,0.7,5.3,i,4.1
CCCOc1ccc(C(=O)CCC(=O)OCC(=O)Nc2cccc(S(N)(=O)=O)c2)cc1,/,1%,-0.9,0.65,0.5,i,3.5
Cc1cc2nc(C3CCCCC3)c(Cc3cccc(Cl)c3)n2c(C)c1Br,/,/,0.7,/,2.2,i,/
CC(=O)c1cccc(NC(=O)N2CCCC2C(=O)NCCc2ccccc2)c1 (stereo not given),4.0,-3%,/,0.7,0.9,/,4.8
COc1ccc(CN2CC(C(N)=O)Oc3ccccc32)cc1F (stereo not given),-2.3,/,6.2,0.69,-1.9,i,4.1
COC(=O)CCC(=O)OC1(C)C(=O)C2=COC(c3ccc(OC)cc3)=CC2=C(Br)C1=O (stereo not given),-19,14µM*,/,/,/,/,2.9
CCN(C(=O)Cn1cc(C(F)(F)F)ccc1=O)c1c(N)n(Cc2ccccc2)c(=O)[nH]c1=O,0.2,-11%,-0.3,0.69,1.7,/,0.7
O=C(Cc1ccccc1[N+](=O)[O-])Nc1ccc2c(c1)OCO2,-3.6,?,0.9,0.66,0.2,i,2.8
COc1ccc(Nc2nc(N)c(C(=O)c3ccc(F)cc3)s2)cc1,2.8,/,0.5,/,5.7,i,/
CCc1cccc2c(C(=O)COC(=O)c3ccc(O)cc3)c[nH]c12,-2.7,-4%,-2.4,0.69,-0.1,i,6.9
OC1CCCCC1,/,/,/,0.67,-1.5,i,-0.2
Cc1occc1C(=O)N1CCCC(Nc2ccc(F)cc2)C1 (stereo not given),1.5,/,2.0,0.72,1.3,i,1.5
Cc1c(CCC(=O)O)c(=O)oc2cc3oc4c(c3cc12)CCCC4,-3.6,-10%,-1.6,0.67,-3.2,i,-25

# Printed as active in Vif TR-FRET, among the entries above:
Compound | RanGTP-Imp inh | Vif TR-FRET | MLL AF4-AF9 inh | UCH37 inh
COC(=O)CCC(=O)OC1(C)C(=O)C2=COC(c3ccc(OC)cc3)=CC2=C(Br)C1=O (stereo not given) | -19 | 14µM* | / | 2.9

# (continued)
SMILES,RanGTP-Imp inh,Vif TR-FRET,MLL AF4-AF9 inh,E coli growth,HNF4A DNA FP,FGF22 binding,UCH37 inh
COc1ccc(S(=O)(=O)N(CC(=O)NCC2CCCO2)Cc2ccccc2)cc1C (stereo not given),3.6,/,-3.8,0.68,3.5,i,0.0
CCn1c(SCC(=O)N/N=C/c2ccccc2OCC(=O)O)nnc1-c1ccc(OC)cc1,-0.6,11%,-3.3,/,0.6,i,/
CCOC(=O)C1CCCN(S(=O)(=O)Cc2ccccc2)C1 (stereo not given),?,0%,/,0.68,2.7,/,1.3
CCc1nnc(NC(=O)/C=C/c2ccc(C)o2)s1,-1.2,/,/,0.63,-5.2,/,-11
CC(=O)Oc1ccc2c(c1)OC(c1ccccc1)CC21CC(C)(C)NC(=O)N1 (stereo not given),4.7,16%,/,0.72,5.0,/,3.8
CC1CCN(C(=O)CNS(=O)(=O)c2ccc(Br)s2)CC1,2.7,-6%,/,0.65,1.4,/,0.4
Cc1ccc(C)c(Cn2cnc3c(nnn3-c3ccc(F)cc3)c2=O)c1,6.5,1%,/,0.72,-4.0,/,2.9
Cc1coc2cc3oc(=O)c(CC(=O)N4C[C@H]5C[C@@H](C4)c4cccc(=O)n4C5)c(C)c3cc12,2.6,/,0.5,0.68,4.6,i,-48
CCOc1ccc(S(=O)(=O)NCCC(=O)NCC(c2ccco2)N2CCCCC2)cc1 (stereo not given),/,-5%,-8.4,0.67,0.9,i,2.8
O=C(CN1C(=O)c2ccc([N+](=O)[O-])cc2C1=O)Nc1cc(S(=O)(=O)N2CCOCC2)ccc1Cl,2.0,/,11,/,-4.5,i,/
CSc1ccc(Cn2c(C)c(C(=O)NCc3ccccc3C(F)(F)F)sc2=O)cc1,/,/,-1.8,/,0.2,i,/
Cc1cccc(NC(=S)NC2CCCCC2)n1,0.8,-6%,-9.2,0.68,0.6,i,1.7
Cc1cc(C(=O)NCC(c2ccco2)N2CCCC2)c2ccccc2n1 (stereo not given),/,7%,1.4,0.68,3.3,i,0.6
O=S1(=O)CC(N2CCC(Cc3ccccc3)CC2)CN1C1CCCCC1 (stereo not given),/,/,3.8,/,2.9,i,/
CCOC(=O)c1c(C)[nH]c(C(=O)COC(=O)c2oc3ccccc3c2C)c1C,?,8%,/,0.69,-0.9,/,3.1
CCOC(=O)c1c(C)[nH]c(C(=O)N(C)CC(=O)Nc2ccc(OCC)c(OCC)c2)c1C,/,/,-6.2,/,-2.1,i,/
Cc1ccc(S(=O)(=O)C2(C(=O)NCc3ccc4c(c3)OCO4)CC2)cc1,0.3,?,-3.8,0.74,-0.3,i,5.3
OCCN(Cc1cccnc1)Cc1ccccn1,/,-6%,-1.3,/,-2.3,i,/
CN(CC(=O)Nc1ccc([N+](=O)[O-])cc1Br)Cc1c(F)cccc1Cl,2.8,/,10,0.7,-0.5,i,3.3
CC1(C(=O)Nc2ccc3c(c2)OCCO3)CCN1Cc1ccc(-c2ccccn2)cc1 (stereo not given),/,/,2.1,/,-0.6,i,/
CCOc1ccc(-n2cc(C(=O)N3CCN(C)CC3)c3cc(OC)c(OC)cc3c2=O)cc1,-0.7,-2%,/,0.75,0.5,/,0.5
Cc1ccccc1-c1noc(-c2ccc(Cl)cc2)n1,3.9,-5%,/,0.68,2.0,/,1.3
O=C(Nc1cccc([N+](=O)[O-])c1)c1ccc(-c2ccccc2)cc1,5.3,?,0.1,/,0.4,i,/
Cc1cc2nc(C3CCN(CC4COc5ccccc5O4)CC3)[nH]c2cc1C (stereo not given),-7.2,-2%,/,0.6,-2.7,/,3.3
S=C(NCCCn1ccnc1)NC1CCCCC1,1.9,12%,2.5,0.69,-0.1,i,0.5
S=C(NCc1ccccc1)C(=S)NCc1ccccc1,/,-9%,1.4,0.72,2.3,i,4.3
CS(=O)(=O)N1CCC(C(=O)O)CC1,6.1,-3%,-45,0.67,-0.9,i,-0.3
CC(NC(=O)c1ccccc1)C(=O)Nc1ccccc1 (stereo not given),/,0%,4.3,0.68,2.2,i,1.0
CN1CCc2c(n(CC(O)CN3C(=O)c4ccccc4S3(=O)=O)c3ccccc23)C1=O (stereo not given),/,1%&28%,/,0.76,-0.2,/,2.0
Cc1ccc(S(=O)(=O)NC(CC(C)C)C(=O)N2CCOCCOCCOCC2)cc1 (stereo not given),3.6,/,0.6,0.69,0.1,i,0.9
CCOC(=O)N1CCN(C(=O)CSCc2ccc(Br)cc2)CC1,0.3,-2%,2.2,0.7,-0.9,i,3.1

# An excerpt (hit frequency here may not be typical).
